Screening data deposited in PubChem by several laboratories.
Mtb growth – M. tuberculosis H37Rv growth inhibitors, H37Rv strain (AID 1626); 220,000 compounds, 0.95% hits; M. tuberculosis H37Rv growth inhibition; higher % means a stronger effect; one-dose inhibition, % at 10 µM; IC50 in µM for titrated hits;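 active means confirmed in a dose series; inconclusive means inhibition above 80% but not taken into the dose series; inactive means below 80% or under 30% at every dose of the series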;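 further: bacteria incubated seven days before Alamar blue readout; 0% = bacteria only wells and 100% = bacteria with antibiotic wells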
YopH PTP inh – YopH tyrosine phosphatase inhibitors, primary screen, biochemical, fluorescence Ex485/Em525. YopH tyrosine phosphatase [Yersinia enterocolitica]. inhibition, %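 (about 10 µM by stock and volumes)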. 140,000 compounds, 0.16% hits. AID 898, 2007;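 active means inhibition of 50% or more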;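 further: controls were vehicle for no effect and minimum signal wells for full effect; inactives centre near -20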
Mtb betalactam – beta-lactam sensitization of Mtb H37Rv, H37Rv | AID 434955, 2010 | 330,000 compounds, 0.27% hits | M. tuberculosis H37Rv growth with meropenem, percent inhibition; hits of this screen are not shown here | inhibition, % at 25 µM;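 active means about 74% or more and at least 40 points above the plate without the antibiotic, then above 30% in a dose series; inconclusive means first-round hits that could not be retested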;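 further: growth measured after seven days incubation then overnight dye step; 0% = bacteria only wells and 100% = bacteria with antibiotic; twin plates without the antibiotic show which effects depend on it; some results filed as inactive read as strong as hits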
RecA intein inh – Mtb RecA intein splicing inhibitors, primary screen, biochemical, fluorescence, HTS | AID 2221, 2009 | cell-free RecA intein splicing | Protein RecA (Mycobacterium tuberculosis (strain ATCC 25618 / H37Rv)), P9WHJ3 | inhibition, %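 (about 9 µM by stock and volumes)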 | 290,000 compounds, 0.75% hits; in the data active means inhibition above about 30%; inconclusive means no clear call, values can overlap the other calls;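 further: 0% = vehicle wells and 100% = reference inhibitor control wells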
Target sequence (P9WHJ3 whole entry, looked up): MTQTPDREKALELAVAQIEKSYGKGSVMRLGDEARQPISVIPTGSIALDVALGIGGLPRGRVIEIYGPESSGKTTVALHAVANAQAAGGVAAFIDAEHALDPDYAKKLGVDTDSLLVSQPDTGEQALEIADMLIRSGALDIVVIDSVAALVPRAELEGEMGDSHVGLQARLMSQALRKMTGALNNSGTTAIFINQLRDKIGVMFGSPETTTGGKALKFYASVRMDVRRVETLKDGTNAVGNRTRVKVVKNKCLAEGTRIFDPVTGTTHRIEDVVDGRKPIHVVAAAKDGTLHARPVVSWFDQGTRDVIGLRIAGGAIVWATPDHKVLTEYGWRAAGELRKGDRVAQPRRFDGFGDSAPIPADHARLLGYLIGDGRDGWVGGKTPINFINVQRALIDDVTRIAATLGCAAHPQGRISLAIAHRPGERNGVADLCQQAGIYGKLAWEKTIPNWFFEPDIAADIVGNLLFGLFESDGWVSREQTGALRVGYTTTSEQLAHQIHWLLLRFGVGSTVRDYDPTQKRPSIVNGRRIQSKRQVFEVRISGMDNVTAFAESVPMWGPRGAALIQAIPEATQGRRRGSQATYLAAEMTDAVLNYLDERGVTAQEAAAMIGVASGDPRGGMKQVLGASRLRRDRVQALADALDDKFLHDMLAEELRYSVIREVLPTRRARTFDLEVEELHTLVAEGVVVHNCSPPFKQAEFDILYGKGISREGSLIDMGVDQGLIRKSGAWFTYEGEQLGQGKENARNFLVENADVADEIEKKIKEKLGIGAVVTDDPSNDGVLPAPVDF
Arbovirus inh – antivirals against arbovirus infection, primary screen, cell-based, full library, 10K replicate subset; arbovirus infection cell-based antiviral screen; inhibition, % at 10 µM; 200,000 compounds, 0.37% hits; AID 1251, 2008;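 active means inhibition from about 30%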;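 further: bluetongue infection of BSR cells; cell survival read as ATP light after 72 h; 0% = infected wells without compound and 100% = uninfected wells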
Arbovirus inh repeat – also measured in Arbovirus inh; calls as there; inhibition, %; measured here: 10K subset replicate screen; many hits read low in the repeat;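 first of two repeat runs on a subset; 0% = infected and 100% = uninfected wells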
* = called active by the depositor; ? = inconclusive; nt = not tested or not shown. Only part of the results is shown, so the mix of outcomes need not match the whole.

Start of the listing, in advance (4 entries):
SMILES	Mtb growth	YopH PTP inh	Mtb betalactam	RecA intein inh	Arbovirus inh	others
CCn1cnc2c1c(=O)n(CC(=O)NN)c(=O)n2Cc1ccccc1	nt	nt	3	0.1	nt
CCc1cccc(NC(=O)Cc2cn(C)c3ccccc23)c1	-2%	1	-5	6.7	0
Cc1cccc2nc(CSc3nc4ccccc4[nH]3)cn12	1%	nt	5	0.0	0
CC(C)(C)c1ccc(-c2cc(C(=O)NNC(=O)Nc3ccccc3)c3ccccc3n2)cc1	35%	-9	92	1.7	-4

Main list, from the first entry:
SMILES	Mtb growth	YopH PTP inh	Mtb betalactam	RecA intein inh	Arbovirus inh	others
CCn1cnc2c1c(=O)n(CC(=O)NN)c(=O)n2Cc1ccccc1	nt	nt	3	0.1	nt
CCc1cccc(NC(=O)Cc2cn(C)c3ccccc23)c1	-2%	1	-5	6.7	0
Cc1cccc2nc(CSc3nc4ccccc4[nH]3)cn12	1%	nt	5	0.0	0
CC(C)(C)c1ccc(-c2cc(C(=O)NNC(=O)Nc3ccccc3)c3ccccc3n2)cc1	35%	-9	92	1.7	-4
CCNCc1ccc(OCc2ccccc2F)c(OC)c1	7%	nt	-8	-2.0	5
COc1ccc2oc(C(=O)OC(C)C(=O)NC3(C#N)CCCCC3)c(C)c2c1 (centres undefined)	nt	nt	-4	0.8	nt
CCn1ccc(=O)c2cc3c(cc21)OCO3	nt	nt	-4	-0.6	nt
COC(=O)CNC(=O)c1nn(-c2cccc(OC)c2)c(=O)c2ccccc12	-2%	-26	-9	nt	-1
O=C(NCc1ccccc1Cl)C1CCC(=O)N(C2CCCC2)C1 (centres undefined)	nt	nt	2	-0.8	nt
O=C(Nc1ccccc1)C1=C[C@H](c2ccc3c(c2)OCO3)C[C@H](OCCCCO)O1	-10%	nt	63	-0.5	-1
COc1ccc2c(CC(=O)Nc3c(C)n(C)n(-c4ccccc4)c3=O)coc2c1	7%	-5	-2	-2.3	0
CC(C)(O)C#Cc1ccc(CN2CCN(Cc3ccsc3)C(CCO)C2)s1 (centres undefined)	-1%	nt	2	1.7	-6
C=CCn1c(SCC(=O)c2[nH]c(C)c(C(=O)OC)c2C)nc2scc(-c3ccc(OC)c(OC)c3)c2c1=O	-1%	-20	12	3.7	-39
O=C(CN(Cc1ccco1)C(=O)CNS(=O)(=O)c1ccc(Cl)cc1)NCc1ccc(F)cc1	2%	-29	-7	0.9	nt
O=C(O)CCCC(=O)Nc1cccc2cccnc12	-9%	-12	-13	-2.8	5
CCc1ccc(C(=O)NNc2ccc(S(N)(=O)=O)cc2)cc1	0%	nt	-4	-1.2	nt
CCOC(=O)N1CCN(S(=O)(=O)c2cc([N+](=O)[O-])c(C)cc2C)CC1	0%	nt	1	-0.4	6
CCOC(=O)COc1ccccc1C(=O)c1cnn(-c2ccccc2)c1	nt	nt	3	0.6	nt
COc1ccc(-n2ncc3c2CC(C)(C)CC3NC(=O)c2c(C)cc(=O)oc2C)cc1 (centres undefined)	nt	nt	2	3.2	nt
CC1(C)C2CCC(C2)C1(C)N=C1OC(CCl)CS1 (centres undefined)	12%	nt	-2	4.0	nt

Reprinted from the part before: two compounds; new compounds follow.
SMILES	Mtb growth	YopH PTP inh	Mtb betalactam	RecA intein inh	Arbovirus inh	others
COc1ccc(-n2ncc3c2CC(C)(C)CC3NC(=O)c2c(C)cc(=O)oc2C)cc1 (centres undefined)	nt	nt	2	3.2	nt
CC1(C)C2CCC(C2)C1(C)N=C1OC(CCl)CS1 (centres undefined)	12%	nt	-2	4.0	nt
C=CCNC(=S)NN=C1CCC(c2ccccc2)CC1 (centres undefined)	nt	nt	8	-2.2	nt
Cc1ccsc1C(=O)NC(C)c1ccc2c(c1)OCO2 (centres undefined)	10%	-24	6	-0.6	-6
CN1CCN(C(=O)c2ccc(Cn3cc(Cl)cn3)o2)CC1	nt	nt	6	1.8	nt
O=C(O)C(S)C(S)C(=O)O (centres undefined)	-7%	nt	4	-2.1	nt
CC(=O)c1ccc(N2CCc3ccccc3C2)c([N+](=O)[O-])c1	-6%	nt	-8	6.1	nt
COC(=O)c1ccccc1NC(=S)NC(=O)CC(C)C	0%	7	-8	nt	11
CCOc1ccc(NC(=O)c2c[nH]n3c(=O)cc(C4CCN(C(=O)OC(C)(C)C)CC4)nc23)cc1	5%	nt	2	-6.4	nt
Cc1ccc(C(c2cc(Cl)c3cccnc3c2O)N2CCN(C)CC2)cc1 (centres undefined)	nt	nt	44	75*	nt
COc1ccccc1OCC(=O)Nc1ccccc1C(=O)N1CCCC1	nt	nt	-3	0.9	nt
CN(C)S(=O)(=O)c1ccc(N2CCCC2)c(C(=O)Nc2nc(-c3cc(F)ccc3F)cs2)c1	4%	-6	41	-0.5	-8
O=C(Cn1ncc(N2CCCC2)c(Br)c1=O)c1ccc(Cl)cc1	1%	nt	-1	nt	-2
O=C(Cc1cccs1)NNC(=S)NC(=O)c1ccco1	78%	nt	-2	-0.4	-10
COCCCNC(=O)c1sc2ncnc(N3CCc4ccccc4C3)c2c1C	6%	-15	46	2.5	-17
CCCCc1ccc(NC(=O)COCC)cc1	?	-18	17	-2.0	-5
S=c1[nH]nc(-c2ccco2)n1/N=C/c1ccc(Br)s1	0%	-43	0	-1.2	11
COc1ccc2oc(C(=O)OCC(=O)NC3CCCC3)c(C)c2c1	nt	nt	?	1.5	nt
COCCN(CCOC)C(=O)N1CCOCC1	-8%	nt	-3	-4.2	nt
Cc1ccc2cc(C=C(C#N)C#N)c(Cl)nc2c1	0%	-20	1	-5.7	-7
COc1cccc(C2c3c(oc4ccc(F)cc4c3=O)C(=O)N2CCCN2CCOCC2)c1 (centres undefined)	nt	-32	-5	0.6	4	Arbovirus inh repeat=3
C(=N\N=C\c1cccs1)/c1cccs1	6%	nt	3	1.3	-5
c1ccc(C[n+]2csc3ccccc32)cc1	10%	-20	-9	0.0	0
Cc1ccnc(NS(=O)(=O)c2ccc(C(C)(C)C)cc2)c1	3%	nt	-7	-1.6	-1
Cc1cc(C)c(NC(=O)Nc2ccccc2)c(Cl)c1	5%	-23	0	2.2	-1
CCN(Cc1ccncc1)Cc1c(O)ccc2cc(Br)ccc12	29%	nt	nt	29	31*
CCOC(=O)c1c(CN(C)C)n(C)c2ccc(OC(C)=O)cc12	-2%	-41	-6	-1.3	5
CCCCN(C)S(=O)(=O)c1c(C)[nH]c(=O)[nH]c1=O	-6%	-33	-1	1.4	17
CCOC(=O)c1sc(N(C)C)nc1-c1ccccc1	-3%	-26	3	-4.3	-6
CNc1nc(N)nc(-c2cc(Cl)ccc2OC)n1	4%	nt	3	-5.0	-1
COc1cc(/C=N/NC(=O)c2nnn(-c3nonc3N)c2C(C)C)ccc1OCc1ccc(F)cc1	nt	nt	37	3.7	nt
FC(F)(F)c1cc(C(F)(F)F)c2ccc(N3CCN(c4ncccn4)CC3)nc2n1	3%	-19	-8	-4.7	-4
COc1ccc(NC(=O)c2cccnc2)c(OC)c1	-9%	-49	-2	1.3	4
Cc1ccccc1NC(=O)c1ocnc1C	-1%	-46	-9	-2.8	0	Arbovirus inh repeat=2
O=C(Nc1cccc(Br)c1)/C(=C\c1cccnc1)NC(=O)c1ccco1	-3%	-4	81	1.4	10
CN(CC1CCCO1)S(=O)(=O)c1ccc(C(=O)Nc2nc(-c3ccccn3)cs2)cc1 (centres undefined)	?	-35	79	nt	-25	Arbovirus inh repeat=-23
Cc1cc(C)nc(NC(=O)CCCC(=O)O)c1	nt	-20	-1	8.8	8
O=C(NCCCn1ccnc1)c1cc(-c2cccc(O)c2)on1	nt	nt	-3	-0.2	nt
O=C(O)CCc1ccccc1OC(=O)c1ccccc1	-3%	nt	-11	2.0	nt
Cc1cc(C)c(C)c(S(=O)(=O)NC(C)C(=O)O)c1C (centres undefined)	nt	nt	-12	0.0	nt
O=C(O)C1CCCN1C(=O)c1cncc(Br)c1 (centres undefined)	-4%	-53	9	1.4	4
Cc1cc2ncc(-c3ncc(C(F)(F)F)cc3Cl)cn2n1	2%	-52	?	-3.7	-5
CCc1ccc(C(=O)C(C)OC(=O)C2COc3ccccc3O2)cc1 (centres undefined)	-2%	-30	8	2.4	-6
CC(C)CCSc1nc(N2CCOCC2)c2c(c1C#N)CC(C)(C)OC2	0%	-51	nt	10	-13
C=CCn1c(SCc2ccc(Br)cc2F)nc2cc(C(=O)O)ccc2c1=O	nt	nt	-6	11	nt
COc1ccc(S(=O)(=O)Nc2ccc3cn[nH]c3c2)cc1C	3%	nt	0	6.2	2
COc1ccc2[nH]c(-c3ccccc3)cc2c1	1%	nt	6	0.6	nt
O=[N+]([O-])c1cccc(/C=N/NC2CCS(=O)(=O)C2)c1 (centres undefined)	-9%	nt	-3	0.3	nt
CCOC(=O)c1oc2cc(OC(C)=O)ccc2c(=O)c1-c1ccc(OC)c(OC)c1	-4%	nt	-5	4.4	nt
Cc1ccc(C#CC(C)(O)C(C)(C)C)cn1 (centres undefined)	-10%	nt	-1	0.8	nt
C=CCn1c(-c2ccc(Cl)cc2)ccc(C#N)c1=O	1%	-21	-19	3.5	-6
CN(CC(=O)Nc1ccc(F)cc1)C(=O)COC(=O)/C=C/c1ccc(OC(F)F)cc1	nt	nt	-2	-1.7	nt
CC(C)OCCCNC(=O)c1ccc2c(c1)NC(=O)c1ccccc1S2	nt	nt	0	-0.2	nt
COCCn1c(C)cc(C2=NNC(=Nc3ccccc3F)SC2)c1C	-2%	-24	10	2.8	-4
CCOc1ncccc1C(=O)OCC(=O)NCCc1ccccc1	1%	-19	-12	-0.4	-1
CCOC(=O)/C(O)=C/c1ncc(C(F)(F)F)cc1Cl	-2%	-29	5	-0.1	0
CCCc1cc(=O)n2nc(N3CCC(C(=O)Nc4c(F)c(F)c(F)c(F)c4F)CC3)sc2n1	nt	nt	-5	-1.7	nt
Cn1c(N)c(C(=O)COC(=O)C2CCN(S(=O)(=O)c3cccs3)CC2)c(=O)n(C)c1=O	-6%	nt	-4	1.6	nt

Arranged by length of the SMILES (descending): part of the list above.
SMILES	Mtb growth	YopH PTP inh	Mtb betalactam	RecA intein inh	Arbovirus inh	others
CCCCN(C)S(=O)(=O)c1c(C)[nH]c(=O)[nH]c1=O	-6%	-33	-1	1.4	17
CC1(C)C2CCC(C2)C1(C)N=C1OC(CCl)CS1 (centres undefined)	12%	nt	-2	4.0	nt
Cc1cc(C)c(NC(=O)Nc2ccccc2)c(Cl)c1	5%	-23	0	2.2	-1
Cc1ccc2cc(C=C(C#N)C#N)c(Cl)nc2c1	0%	-20	1	-5.7	-7
CNc1nc(N)nc(-c2cc(Cl)ccc2OC)n1	4%	nt	3	-5.0	-1
